TDP-43 yeast inh: TDP-43 toxicity inhibition in yeast; AID 652104; Potency, µM (series often up to 46.1 µM), without a hit: at the top dose growth rescue (activation), most hits filed as activators; TDP-43 expressing yeast growth rescue, BacTiter-Glo, 24 h; hit rate 1.8% among 410,000; also: % of control where 0% means no effect; nearly all actives have a fitted effect of over 50% in size
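Yeast expressing TDP-43 (pregrown in raffinose, seeded at OD600=0.02 in galactose medium) exposed to compounds 24 hr at 30 deg C. Growth read by BacTiter-Glo luminescence; rescue of toxicity appears as increased signal.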
aSyn yeast inh: alpha-synuclein toxicity inhibition in yeast | Potency, µM (highest dose often 46.1 µM), without a hit: at the highest dose growth rescue (activation), hits mostly activators | Yeast expressing alpha-synuclein, growth rescue, BacTiter-Glo, 24 h | hit rate 0.14% among 370,000; also: % of control where 0% means no effect; nearly all actives have a fitted effect of over 65% in size
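Rescue of yeast growth: cells expressing toxic alpha-synuclein, induced in galactose at OD600 0.02, incubated with compound 24 h at 30 C. ATP luminescence quantified growth; inhibitors of toxicity appear as activators.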
FUS yeast rescue: FUS proteinopathy suppression in yeast; S. cerevisiae FUS-expressing, growth rescue, OD600, 24 h; Potency, µM (series often up to 76.6 µM), inactives show top-dose growth rescue (activation), usual class: activators; hit rate 0.24% among 390,000; AID 1347120;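 also: plate controls were DMSO vehicle for no effect and reference control for full effect; nearly all actives have a fitted effect of over 55% in size; some results filed as inactive show a strong effect at the top dose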
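Galactose (2%) drives FUS expression in yeast precultured in raffinose; seeding density OD 0.005. Test compounds incubated 24hr at 30C and 99% humidity before absorbance at 600 nm was measured.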
EPAC1 ag: activates human EPAC1 exchange factor. Potency, µM (top dose mostly 154 µM), inactives show at the top dose activation, most hits filed as activators. O95398. hit rate 0.073% among 360,000. EPAC1 agonist qHTS, biochemical assay; response scale: 100% = response to 6.5 mM cAMP; also: nearly all actives have a fitted effect of over 60% in size
Target sequence (O95398 whole entry, looked up): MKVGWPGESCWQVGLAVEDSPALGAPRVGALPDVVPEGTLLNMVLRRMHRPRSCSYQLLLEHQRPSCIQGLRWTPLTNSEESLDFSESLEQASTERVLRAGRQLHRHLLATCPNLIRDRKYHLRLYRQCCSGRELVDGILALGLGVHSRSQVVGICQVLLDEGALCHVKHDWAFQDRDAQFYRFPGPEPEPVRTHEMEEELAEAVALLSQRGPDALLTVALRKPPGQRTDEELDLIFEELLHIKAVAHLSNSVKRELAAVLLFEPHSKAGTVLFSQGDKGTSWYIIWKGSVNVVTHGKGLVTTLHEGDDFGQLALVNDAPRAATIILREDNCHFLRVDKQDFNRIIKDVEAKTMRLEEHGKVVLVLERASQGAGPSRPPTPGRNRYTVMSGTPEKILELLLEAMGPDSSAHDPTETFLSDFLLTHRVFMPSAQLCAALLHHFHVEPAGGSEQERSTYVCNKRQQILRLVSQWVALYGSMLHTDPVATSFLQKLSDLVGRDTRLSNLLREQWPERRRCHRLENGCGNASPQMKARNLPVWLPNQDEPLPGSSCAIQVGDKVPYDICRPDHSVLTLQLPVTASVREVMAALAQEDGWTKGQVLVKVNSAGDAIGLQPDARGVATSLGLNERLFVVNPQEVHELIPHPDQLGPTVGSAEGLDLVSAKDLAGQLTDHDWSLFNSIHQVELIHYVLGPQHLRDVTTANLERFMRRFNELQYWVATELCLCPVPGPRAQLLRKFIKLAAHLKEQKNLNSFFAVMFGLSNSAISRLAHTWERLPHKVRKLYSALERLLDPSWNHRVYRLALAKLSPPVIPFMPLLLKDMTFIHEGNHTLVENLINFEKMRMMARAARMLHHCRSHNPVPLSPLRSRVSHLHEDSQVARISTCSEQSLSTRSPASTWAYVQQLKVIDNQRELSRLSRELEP
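Read-out is the fluorescence drop as BODIPY-GDP leaves Rap1B (480 nm excitation, 540 nm emission), recorded every 5 minutes over 30 minutes. Reactions held 100 nM EPAC1, 250 nM Rap1B–BODIPY-GDP and 50 uM GDP, with 6.5 mM cAMP setting full activation.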
EPAC1 antagonist: EPAC1 (human) antagonism. hit rate 0.14% among 360,000. EPAC1 GEF assay, Rap1b-BODIPY-GDP exchange fluorescence. Potency, µM (doses to about 115 µM), without a hit: at the top dose activity change, negative = inhibition, actives largely listed as inhibitors. AID 720709. O95398;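 also: plate controls were vehicle for no effect and positive control for full effect; nearly all actives have a fitted effect of over 50% in size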
The depositor's hits bear a star; ? = inconclusive; . = no result given; [ ] = remark or other dose. Calls follow the shape of the dose curve; as a rule, active = well fitted curve in the direction sought with a large enough effect; inconclusive = small, poorly fitted or top-dose-only effect, or another doubt; inactive = no such curve, though single readings can be large; an effect the other way counts as inactive or inconclusive. Potency is read from the fitted curve at half-maximal effect.

Sample of the layout, 2 compounds:
Assay codes – A = TDP-43 yeast inh; B = aSyn yeast inh; C = FUS yeast rescue; D = EPAC1 ag; E = EPAC1 antagonist
canonical_smiles: O=C(Cn1cnc2sc3c(c2c1=O)CCCC3)NCC(=O)Nc1ccc(F)cc1F
  A = -4% | B = 0% | C = 5% | D = 4% | E = 4%
canonical_smiles: Cc1ccc2nc3c(nc2c1)-c1ccccc1C3=O
  A = 23% | B = -13% | C = 23% | D = 6% | E = 7%

The whole of this part, from the first entry:
Assay codes – A = TDP-43 yeast inh; B = aSyn yeast inh; C = FUS yeast rescue; D = EPAC1 ag; E = EPAC1 antagonist
canonical_smiles: O=C(Cn1cnc2sc3c(c2c1=O)CCCC3)NCC(=O)Nc1ccc(F)cc1F
  A = -4% | B = 0% | C = 5% | D = 4% | E = 4%
canonical_smiles: Cc1ccc2nc3c(nc2c1)-c1ccccc1C3=O
  A = 23% | B = -13% | C = 23% | D = 6% | E = 7%
canonical_smiles: N#CC1(c2ccc(NC(=O)c3ccccc3F)cc2)CCCC1
  A = -11% | B = -2% | C = . | D = 1% | E = -22%
canonical_smiles: COc1ccc(/C=C2/Sc3ccc(C(=O)NCCN4CCCCCC4)cc3NC2=O)cc1
  A = 11% | B = 2% | C = 38% | D = -4% | E = -1%
canonical_smiles: COc1ccc(/C=C/C(=O)OCC(=O)c2ccc3c(c2)NC(=O)CO3)c(OC)c1
  A = -23% | B = -3% | C = 27% | D = -12% | E = -14%
canonical_smiles: CCc1cccc2c1NC(=O)C2(O)N1CCCC(C)C1 (configuration not stated)
  A = ? | B = 12% | C = 9% | D = 3% | E = -10%
canonical_smiles: CC(=O)NS(=O)(=O)c1cccnc1Nc1cccc(Cl)c1
  A = 2% | B = 3% | C = -4% | D = 0% | E = 0%
canonical_smiles: CC12CNCC(C)(CN(C3(O)C(=O)Nc4ccc(Br)cc43)C1)C2=O (configuration not stated)
  A = -1% | B = 12% | C = 7% | D = 11% | E = -7%
canonical_smiles: C[C@H](NC(=O)c1nc[nH]c1C(=O)N1CCN(c2ccccc2)CC1)C(=O)OC(C)(C)C
  A = 2% | B = 4% | C = 9% | D = -8% | E = -7%
canonical_smiles: CC(=O)Nc1ccc(C=NNC(=O)c2ccc(NS(=O)(=O)c3cccs3)cc2)cc1
  A = -23% | B = 0% | C = 19% | D = 2% | E = -23%
canonical_smiles: CCC(C)c1ccccc1OCCCNC1CCCC1 (configuration not stated)
  A = -1% | B = -3% | C = -8% | D = -13% | E = -8%
canonical_smiles: COc1ccc(/C=C2/Sc3ccc(C(=O)N4CCOCC4)cc3NC2=O)cc1OC
  A = 1% | B = -1% | C = 8% | D = -12% | E = 8%
canonical_smiles: COc1ccccc1C(CC(=O)Nc1ccc(C)c(C)c1)c1ccc(OC(C)C)cc1 (configuration not stated)
  A = -9% | B = 3% | C = -7% | D = -4% | E = 4%
canonical_smiles: CCc1ccccc1N/N=C(/C)c1c(O)cc(C)oc1=O
  A = 0% | B = -9% | C = 4% | D = 1% | E = 14%
canonical_smiles: COc1cc(Br)c(CC(=O)NC2CC2)cc1OC
  A = 23% | B = 1% | C = 0% | D = 1% | E = 4%

(list continues)
Assay codes – A = TDP-43 yeast inh; B = aSyn yeast inh; C = FUS yeast rescue; D = EPAC1 ag; E = EPAC1 antagonist
canonical_smiles: Cc1c(C)c2ccc(OC(C)C(=O)N3C[C@H]4C[C@@H](C3)c3cccc(=O)n3C4)c(C)c2oc1=O (some centres not stated)
  A = 29% | B = 2% | C = -3% | D = -13% | E = -1%
canonical_smiles: CC(=O)c1ccc(NC(=O)c2cnsn2)cc1
  A = -13%[9.22 µM] | B = 6% | C = 9% | D = -8% | E = 0%
canonical_smiles: CC(C)(C)OC(=O)[C@H](Cc1ccccc1)NC(=O)c1nc[nH]c1C(=O)NC1CCNCC1
  A = 17% | B = 0% | C = -5% | D = -2% | E = -1%
canonical_smiles: CCCN1CCN(C(=O)CCCNC(=O)Cn2cnc3sc(C)c(C)c3c2=O)CC1
  A = 29% | B = -1% | C = -3% | D = 5% | E = -2%
canonical_smiles: Cc1cc(-c2csc(NC(=O)c3ccc(C#N)cc3)n2)c(C)n1Cc1ccco1
  A = 5% | B = 10% | C = 41% | D = -3% | E = ?

5 compounds from above with just aSyn yeast inh.
SMILES,aSyn yeast inh
Cc1c(C)c2ccc(OC(C)C(=O)N3C[C@H]4C[C@@H](C3)c3cccc(=O)n3C4)c(C)c2oc1=O (some centres not stated),2%
CC(=O)c1ccc(NC(=O)c2cnsn2)cc1,6%
CC(C)(C)OC(=O)[C@H](Cc1ccccc1)NC(=O)c1nc[nH]c1C(=O)NC1CCNCC1,0%
CCCN1CCN(C(=O)CCCNC(=O)Cn2cnc3sc(C)c(C)c3c2=O)CC1,-1%
Cc1cc(-c2csc(NC(=O)c3ccc(C#N)cc3)n2)c(C)n1Cc1ccco1,10%

Only part of the results is shown; the hit share may differ from the screen's.
